PKD1 kinase inh – inhibitors of human PKD1 kinase; inhibition, %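 (about 10 µM by stock and volumes)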; Q15139; PKD1 kinase fluorescence polarization assay; actives 0.056% (n = 200,000);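 active = inhibition of 50% or more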;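 also: controls were vehicle for no effect and a reference inhibitor for full effect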
Insulin prom inh – TRM-6 insulin promoter activity inhibition; TRM-6 cells (human fetal islet line), insulin promoter-eGFP reporter, imaging; reporter expression induced with tamoxifen; inhibition, % at 2 µM; actives 0.9% (n = 130,000);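 active = inhibition above the mean plus 3 SD, with well images judged a real hit on visual review, cut at about 60% in these data, passing the limit was not always enough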
GALR2 agonist – agonists of human galanin receptor 2 (GALR2). GALR2-expressing cells, agonist activation read-out. O43603. activation, %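 (tested at 5 µM)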. actives 0.48% (n = 140,000);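 active = above mean plus 3 SD of all compounds, about 5% in these data, not always enough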;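 also: 0% = vehicle buffer wells and 100% = reference agonist at full effect; tested in CHO reporter cells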
Target sequence (O43603 whole entry, looked up): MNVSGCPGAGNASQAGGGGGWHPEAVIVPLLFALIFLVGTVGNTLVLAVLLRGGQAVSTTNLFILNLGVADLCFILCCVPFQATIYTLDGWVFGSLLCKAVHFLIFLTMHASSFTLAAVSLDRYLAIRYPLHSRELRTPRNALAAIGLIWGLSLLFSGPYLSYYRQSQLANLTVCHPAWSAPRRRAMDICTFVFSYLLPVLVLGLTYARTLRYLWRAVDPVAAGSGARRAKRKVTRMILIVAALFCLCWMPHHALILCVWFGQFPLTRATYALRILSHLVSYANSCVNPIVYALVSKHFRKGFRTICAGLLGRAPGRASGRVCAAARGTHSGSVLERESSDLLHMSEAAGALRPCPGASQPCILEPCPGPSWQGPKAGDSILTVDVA
RGS16-Gao HTS – regulators of human RGS16-Galphao interaction. O15492+P09471. bead-based flow cytometry RGS16-Galphao binding, fluorescence; actives lie on both sides. binding response (% of control), % at 10 µM. actives 0.38% (n = 220,000);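 active = below 25% or above 175%, edge rows of some plates excepted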;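 also: Galphao activated by GDP with aluminum fluoride before binding; 100% = wells without compound and 0% = beads without RGS; some results beyond the cut were filed as inactive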
Target sequence (O15492 whole entry, looked up): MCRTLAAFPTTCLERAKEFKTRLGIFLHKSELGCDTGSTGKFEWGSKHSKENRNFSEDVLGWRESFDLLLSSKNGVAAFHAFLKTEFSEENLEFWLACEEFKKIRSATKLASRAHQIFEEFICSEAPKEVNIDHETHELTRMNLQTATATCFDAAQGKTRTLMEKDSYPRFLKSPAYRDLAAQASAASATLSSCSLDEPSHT
Target sequence (P09471 whole entry, looked up): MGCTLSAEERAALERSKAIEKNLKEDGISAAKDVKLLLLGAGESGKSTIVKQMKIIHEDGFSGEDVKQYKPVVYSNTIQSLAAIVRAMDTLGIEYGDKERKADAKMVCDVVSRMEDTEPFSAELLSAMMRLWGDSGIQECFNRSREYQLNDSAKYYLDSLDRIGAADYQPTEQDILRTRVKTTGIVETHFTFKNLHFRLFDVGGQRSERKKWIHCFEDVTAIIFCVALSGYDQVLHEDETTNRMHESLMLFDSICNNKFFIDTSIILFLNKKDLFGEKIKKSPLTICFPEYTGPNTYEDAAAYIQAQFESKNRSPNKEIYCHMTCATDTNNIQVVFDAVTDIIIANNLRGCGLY
HSV augment – HSV replication enhancement. HSV replication augmentation in cells, fold increase. actives 0.005% (n = 220,000). maximum fold increase. AID 1956;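 active = peak rise of 1.5-fold or more in the series; tested in PC3 cells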;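 also: first round at 10 µM; read as green reporter fluorescence; hits show the peak of a series up to 25 µM; 1 = signal of infected wells without compound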
Insulin prom inh cell count – second read-out of Insulin prom inh, no call of its own (marks repeat the call); normalized cell count, %; measured here: cell count, toxicity; reference of the scale not given here;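 cells exposed to compound for 48 h; stained nuclei by imaging scaled within each plate; lower means fewer cells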
HSV augment primary fold – further read-out of HSV augment, marked with its call; fold increase; compound at 10 µM; measured here: primary screen fold increase 10 uM; tested in PC3 cells;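 GFP signal in the first replicate; 1 = infected wells without compound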
* = called active by the depositor; i = inactive; nt = no result given.

SMILES	PKD1 kinase inh	Insulin prom inh	Insulin prom inh cell count	GALR2 agonist	RGS16-Gao HTS	HSV augment	HSV augment primary fold
COc1cccc(C(=O)N/N=C(/c2ccccc2)c2ccccn2)c1	5.6	17.8	79.8	-0.7	98.7	i	0.52
CCn1cc(C(=O)Nc2ccc(OC)c(S(=O)(=O)N3CCCCC3)c2)c(=O)c2ccc(C)nc21	-5.5	-56.0	78.4	-0.9	104.4	i	0.9
Cc1c(Cl)cnn1CC(=O)NC1C(=O)N2C(C(=O)O)=C(CSc3nnnn3C)CSC12 (centres undefined)	0.9	-21.4	116.3	nt	102.3	i	0.94
COc1cccc(C2=NOC(C(=O)NC(C)(C)C)C2)c1 (centres undefined)	-5.2	nt	nt	-0.5	103.3	i	1.14
CCOC(=O)c1c(C)[nH]c(C)c1C(=O)COC(=O)c1ccc(O)cc1	5.0	11.1	73.9	nt	107.9	i	0.93
CNc1cnn(-c2ccccc2)c(=O)c1Cl	9.4	nt	nt	-2.3	91.7	i	0.94
Cc1nc(Nc2ccccc2)[nH]c(=O)c1CCC(C)C	-3.8	-223.8	98.0	0.3	100.3	i	0.85
CCOC(=O)N1CCN(C(=O)C2CC(c3cc(OC)ccc3OC)=NO2)CC1 (centres undefined)	-2.2	nt	nt	-2.1	99.5	i	1
COc1ccc(-c2cc(=O)c3ccccc3s2)cc1	-2.1	nt	nt	-0.9	100.5	i	1.04
Cn1c(NC(=O)c2ccc(Cl)cc2)cc(=O)n(C)c1=O	-7.7	-9.1	50.5	nt	112.5	i	0.98
CCc1ccc(-n2nnnc2SCC(=O)NNC(=O)c2ccco2)cc1	-1.1	-16.7	106.8	-3.0	99.9	i	0.79
COc1ccccc1N(CC(=O)Nc1ccc2c(c1)OCO2)S(=O)(=O)c1ccccc1	-0.8	36.4	127.8	-0.4	99.8	i	1.09
COc1ccc(NC(=O)CSCc2ccc(C)cc2)cc1	3.5	nt	nt	nt	100.4	i	0.95
CCOC(=O)c1ccc(S(=O)(=O)N2CCN(C)CC2)cc1	-8.2	51.4	135.3	-1.2	110.2	i	0.91
CCOc1cc(C(=O)Nc2cc(C)ccc2C)ccc1OCC(=O)N1CCCCC1	-3.9	nt	nt	-2.2	103.7	i	1.31
CCOc1cc(N2CCOCC2)c(OCC)cc1NC(=O)CN1CCC(Cc2ccccc2)CC1	-16.6	-20.0	107.5	-0.6	104.9	i	0.91
CCCCNCC1CCCO1 (centres undefined)	nt	nt	nt	nt	101.5	i	1
O=C(COc1ccc(S(=O)(=O)NC2CCCCC2)cc1)NC1CCCCC1	1.0	-338.5	93.1	0.6	95.1	i	1.09
CC(Nc1ccc(Br)cn1)c1cc(Cl)ccc1O (centres undefined)	-1.2	28.6	102.2	-1.1	97.6	nt	nt
CCCOc1ccc2c3c(c(=O)oc2c1OCCC)CCCC3	-9.8	0.0	62.3	-2.7	102.2	i	0.81
CCOC(=O)c1cnc2ccc(OCC)cc2c1NCc1ccccc1	3.9	-69.0	62.1	0.6	184.2	i	0.85
Oc1ccc(N=Nc2ccc3c(c2)OCCO3)c(O)c1	nt	nt	nt	nt	94.6	i	0.87
CCCN(c1nc(C)cc(OC)n1)S(=O)(=O)c1ccccc1	4.0	nt	nt	-0.1	100.6	i	1.1
CC(C)NC(=O)Cn1nc(C(F)(F)F)c2c1CCC2	-5.4	50.0	165.6	-0.4	112.9	i	0.96
CCN1CCN(c2ncc3c(n2)CC(c2ccc(OC)c(OC)c2)CC3=O)CC1 (centres undefined)	5.1	nt	nt	-1.5	101.4	i	0.67

A different layout for part of the listing above:
Molecule | PKD1 kinase inh | Insulin prom inh | Insulin prom inh cell count | GALR2 agonist | RGS16-Gao HTS | HSV augment | HSV augment primary fold
CCc1ccc(-n2nnnc2SCC(=O)NNC(=O)c2ccco2)cc1 | -1.1 | -16.7 | 106.8 | -3.0 | 99.9 | i | 0.79
COc1ccccc1N(CC(=O)Nc1ccc2c(c1)OCO2)S(=O)(=O)c1ccccc1 | -0.8 | 36.4 | 127.8 | -0.4 | 99.8 | i | 1.09
COc1ccc(NC(=O)CSCc2ccc(C)cc2)cc1 | 3.5 | nt | nt | nt | 100.4 | i | 0.95
CCOC(=O)c1ccc(S(=O)(=O)N2CCN(C)CC2)cc1 | -8.2 | 51.4 | 135.3 | -1.2 | 110.2 | i | 0.91
CCOc1cc(C(=O)Nc2cc(C)ccc2C)ccc1OCC(=O)N1CCCCC1 | -3.9 | nt | nt | -2.2 | 103.7 | i | 1.31

The list goes on:
SMILES	PKD1 kinase inh	Insulin prom inh	Insulin prom inh cell count	GALR2 agonist	RGS16-Gao HTS	HSV augment	HSV augment primary fold
COc1cccc(/C=C/C(=O)OCC(=O)NCc2ccco2)c1OC	-3.8	-45.2	93.9	-0.9	111.0	i	1.15
CCC(Oc1ccc(C)c(C)c1)C(=O)O (centres undefined)	0.4	-25.0	62.7	-1.8	100.2	i	1.12
O=C(CN1CCCCC1)Nc1scc2c1c(=O)oc1ccccc12	nt	nt	nt	nt	101.8	i	0.96
O=C(O)c1cn(-c2ccccc2)nc1-c1cccnc1	0.9	37.9	88.0	-0.7	99.6	i	0.95
Cc1ccc(Oc2cc(C)nc(-c3ccccc3O)n2)cc1	-5.6	nt	nt	-1.6	101.1	i	0.97
CCN(CC)S(=O)(=O)c1cccc(C(=O)NC(C)C(c2cccs2)N2CCCC2)c1 (centres undefined)	-2.0	nt	nt	nt	102.6	i	0.94
O=C(c1ccc2c3c(cccc13)CC2)C1CCCN(Cc2ccncc2)C1 (centres undefined)	-6.3	nt	nt	nt	112.5	i	1.04
O=C1CCCC1C(=O)Nc1ccc2ccccc2c1 (centres undefined)	nt	nt	nt	nt	118.8	i	0.95
Cc1ccc(Oc2ncccc2/C=N/OCc2ccc(Cl)c(Cl)c2)cc1	12.3	3.5	74.6	-1.9	101.5	i	1.03
CCCN1CCN(CCCNC(=S)Nc2ccc3nc(N4CCN(CC)CC4)cc(C)c3c2)CC1	0.1	nt	nt	nt	105.5	i	0.88
O=C(CCn1nc(-c2ccc(Cl)cc2)ccc1=O)N1CCN(c2ccccn2)CC1	-1.4	-16.7	149.8	-2.2	102.9	nt	nt
Cc1sc2nc(-c3cccnc3)[nH]c(=O)c2c1-c1ccccc1	-6.7	46.7	140.7	nt	97.0	i	0.78
O=C(Cc1ccc(Br)cc1)NC1CCCCC1	-1.9	8.3	132.8	-3.7	104.2	i	0.91
C=CCn1c(N)c(C(=O)OCC)sc1=S	-5.9	29.7	161.7	-3.0	96.6	i	0.98
O=C(Cn1c2ccccc2c(=O)c2ccccc21)N/N=C/c1cc([N+](=O)[O-])ccc1N1CCCCC1	-2.0	nt	nt	-1.6	103.2	i	0.94
O=C(c1ccccc1-c1nc(-c2ccccc2Cl)no1)N1CCOCC1	nt	nt	nt	nt	107.7	i	1.06
COc1ccccc1Nc1ccc([N+](=O)[O-])cc1N	-8.6	-74.1	111.4	-0.2	106.8	i	1.02
Cc1cccc2c1N(CCOc1ccc(C(C)(C)C)cc1)C(=O)C2=O	-6.3	nt	nt	1.5	107.7	i	1.04
CCN(CC)CCNC(=O)Cc1c(C(=O)O)n(CC)c2ccccc12	0.1	nt	nt	-1.3	104.2	i	1.05
O=C(CNC(=O)c1ccc(N2C(=O)c3ccccc3C2=O)cc1)OCC(=O)c1ccc(Cl)cc1	1.8	25.9	206.5	0.0	104.5	i	0.9
O=C(O)C1C2C=CC(C2)C1C(=O)NCCCn1ccnc1 (centres undefined)	-10.4	48.6	112.6	-1.4	105.0	i	0.92
O=S(=O)(/C=C/c1ccccc1)c1ccccc1	0.2	-40.0	55.9	-0.1	98.2	i	0.9
COc1ccc(CN(Cc2ccc(C(=O)O)cc2)C(=S)Nc2cccc(C)c2)cc1OC	9.9	nt	nt	nt	98.0	i	0.95
CCOc1ccc(NC2=CC(=O)CC(c3ccco3)C2)cc1 (centres undefined)	-8.6	nt	nt	nt	95.2	i	1.02
O=C(O)CCc1nn2c3ccccc3nc2n(-c2ccccc2)c1=O	-2.9	-39.5	97.8	-1.5	102.1	i	0.77
Next compounds.
SMILES	PKD1 kinase inh	Insulin prom inh	Insulin prom inh cell count	GALR2 agonist	RGS16-Gao HTS	HSV augment	HSV augment primary fold
Cc1ccc(NC(=O)Cn2cnc3c(=O)n(C)c(=O)n(C)c32)c(C)c1	-3.5	61.9	116.3	-3.4	101.1	i	0.78
Clc1ccccc1CN(Cc1ccco1)Cc1nnnn1C1CCCC1	3.6	-58.1	73.4	-0.4	102.4	i	0.88
O=c1[nH]c2cc3c(cc2cc1CN(Cc1cccs1)Cc1nnnn1Cc1ccco1)OCCO3	5.9	-48.5	109.4	-2.6	100.1	i	1.03
CC1=C(C(=O)Nc2ccc(C)cc2)C(c2ccc(C)o2)C2=C(CC(C)(C)CC2=O)N1 (centres undefined)	0.9	-30.0	119.7	-2.3	105.8	i	0.997
COc1ccc(S(=O)(=O)N2c3cc(Cl)ccc3Oc3nc4ccccc4nc32)cc1	-4.8	-286.1	111.3	0.1	105.1	i	0.6
Cc1ccc(C(=O)N(c2ccccc2)C2CC(C)N(C(=O)c3ccco3)c3ccccc32)cc1 (centres undefined)	1.6	-3.2	178.7	-1.4	110.6	i	1.13
CCc1ccc(CNCCNCC(C)O)cc1 (centres undefined)	-10.0	nt	nt	-1.7	103.0	i	0.92
CCOC(=O)C(NC(=O)c1ccccc1Cl)(Nc1sc2c(c1C(N)=O)CCC2)C(F)(F)F (centres undefined)	-3.6	nt	nt	0.1	104.0	i	1.5
Brc1ccccc1Cn1c(-c2cncs2)nc2ccccc21	-1.2	nt	nt	-1.1	112.8	i	0.79
O=C(OCC(=O)N1CCc2ccccc2C1)c1ccc(N2CCOCC2)c([N+](=O)[O-])c1	12.8	nt	nt	-0.9	95.9	i	1.21
Cc1onc(-c2c(Cl)cccc2Cl)c1C(=O)N=C(N)N1CCCC1	nt	nt	nt	nt	98.5	i	1.26
COc1ccc(NC(=O)Nc2ccccc2SC)cc1	-5.4	nt	nt	nt	93.0	i	0.9
O=C(O)c1ccccc1OCCOc1ccccc1	-1.8	28.9	126.7	-1.3	100.0	i	1.02
CCC(C)[C@H](NC(=O)[C@@H]1Cc2ccccc2CN1C(=O)OC(C)(C)C)C(=O)NCC1CCC(C(=O)O)CC1 (some centres undefined)	nt	nt	nt	nt	99.5	i	1.1
Cc1cc(C(=O)Nc2ccc3c(c2)OCCO3)c(C)o1	-3.8	-34.2	62.7	-2.7	87.7	i	1.04
COc1ccc(/C=C(\NC(=O)c2ccco2)C(=O)NCCc2nc3ccccc3[nH]2)cc1	nt	nt	nt	nt	99.5	i	1.21
CCC1(CC)Cc2ccccc2C2=C(C(=O)N3CCCCC3)C(=O)C(=O)N21	-3.3	nt	nt	nt	103.2	i	1.03
COC(=O)c1ccc(-c2ccc([C@H]3[C@H]4C=CC[C@@H](C)[C@@H]4C(=O)N3Cc3ccccc3)c(F)c2)cc1	nt	nt	nt	nt	112.9	i	0.89
COc1cc(/C=C2/C(=O)NN(c3ccc(F)cc3)C2=O)cc([N+](=O)[O-])c1O	nt	nt	nt	nt	96.8	i	0.93
O=c1cc(NCc2ccccc2)nc2ccccn12	-5.7	8.1	144.2	nt	88.2	i	1.08
Nc1ccc(N2CCCCC2)cc1N1CCCCC1	14.9	nt	nt	-1.4	76.9	nt	nt
Cc1nn(C)cc1CNC(=O)Nc1ccc(Cl)c(Cl)c1	-0.2	nt	nt	0.3	104.1	i	0.94
O=C(NCCCO)c1ccc(CSc2nc3ccccc3c(=O)[nH]2)cc1	nt	nt	nt	nt	97.5	i	0.96
Cc1c(Br)c(-c2n[nH]c(=S)n2Cc2ccco2)nn1C	-8.0	0.0	155.7	-1.3	98.1	i	0.96
Cc1ccccc1NC(=O)CCSc1nnnn1-c1ccccc1	-1.8	0.0	114.8	1.2	109.9	i	0.92
(list continues)
SMILES	PKD1 kinase inh	Insulin prom inh	Insulin prom inh cell count	GALR2 agonist	RGS16-Gao HTS	HSV augment	HSV augment primary fold
CCOC(=O)c1cnc(-n2nc(C)cc2C)nc1Nc1ccccc1OC	-3.5	nt	nt	-1.5	94.4	i	0.88
CCOC(=O)C(C)/C(C)=N/NC(=O)c1cc2ccccc2cc1O (centres undefined)	-0.4	-18.5	103.1	0.2	98.1	i	1.08
CCOc1ccc2nc(SCC(=O)Nc3cc4c(cc3C(C)=O)OCO4)[nH]c2c1	1.6	29.0	80.5	-1.2	101.2	i	0.967
CCOC(=O)c1ccc(N/C(=N/S(=O)(=O)c2ccccc2)c2ccccc2)cc1	-2.2	-25.9	103.1	-0.7	98.5	i	0.99
O=C(CCC1CCCC1)NCc1ccccn1	8.0	nt	nt	-0.5	103.7	i	1.03
Cn1c(=O)c2c(ncn2CC(=O)N2CCN(c3ccccc3F)CC2)n(C)c1=O	-7.1	64.7	83.8	-1.0	112.4	i	0.93
COc1ccc(C(=O)c2c(C(F)(F)F)oc3c2C(=O)c2ccccc2C3=O)cc1OC	-7.0	25.0	105.0	1.6	110.7	i	0.54
